From PubChem
Sa growth 42C = S. aureus growth inhibition at 42 and 30 °C, primary screen, LtaS inhibitor project, RN4220, two temperatures | AID 720641, 2013 | OD600, 20 h, 42 °C; active compounds read low | relative growth, % (concentration not given with the values) | 170,000 tested, 0.53% active;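 active = growth at 42 °C up to 50% and 20 or more points under that at 30 °C, or under 10% at both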;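 also: 300 nL library stock went into each well; scaled to the means of positive and negative controls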
GIV-Gai inh = inhibitors of GIV peptide binding to Galpha-i3, primary screen, biochemical, fluorescence polarization, FITC-GIV GBA peptide, rat Galphai3. Guanine nucleotide-binding protein G(i) subunit alpha-3 (Rattus norvegicus), P08753. 90 min; active compounds read low; scaled: aluminum fluoride 0%, vehicle 100%. percent of control (FP), % (concentration not given with the values). 210,000 tested, 0.42% active. AID 1224905, 2016;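 active = replicate mean at 85% of control or lower, very high polarization wells dropped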;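 also: wells of about 15 µL received 100 nL stock; the first replicate is given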
Target sequence (P08753 whole entry, looked up): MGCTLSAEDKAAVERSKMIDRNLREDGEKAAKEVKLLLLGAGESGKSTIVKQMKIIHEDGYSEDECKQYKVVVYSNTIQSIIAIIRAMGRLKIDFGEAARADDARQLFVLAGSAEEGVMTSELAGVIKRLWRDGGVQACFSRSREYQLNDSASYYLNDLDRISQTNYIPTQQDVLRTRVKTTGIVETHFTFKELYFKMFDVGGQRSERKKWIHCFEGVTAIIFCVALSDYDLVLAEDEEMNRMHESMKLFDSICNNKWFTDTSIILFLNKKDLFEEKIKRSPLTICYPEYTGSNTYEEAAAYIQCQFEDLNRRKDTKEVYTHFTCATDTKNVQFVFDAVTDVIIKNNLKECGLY
HCMV UL50-53 inh = inhibitors of HCMV UL50-UL53 interaction, biochemical, HTRF. HCMV UL50-UL53 nuclear egress complex (human cytomegalovirus). normalized percent inhibition. inhibition, % (concentration not given with the values). 190,000 tested, 0.15% active;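 active = both replicates at 50% or more, plus weaker picks with an unusually low signal ratio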;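 also: stock transfer was 100 nL into about 20 µL; 0% = negative control wells and 100% = wells with untagged competitor protein; inactives centre near -12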
Sa growth 42C second temp = further read-out of Sa growth 42C, marked with its call; relative growth, %; measured here: growth at 30 °C;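 optical density after 20 h as mean of two plates; 100% = untreated growth and lower means inhibition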
Active calls of the source: *; / = not tested or not shown; & = joins results of further samples. This is a random part of the collection. About 0.8% of those tested had a hit in this group.

compound | Sa growth 42C second temp | HCMV UL50-53 inh | GIV-Gai inh | Sa growth 42C
CN(Cc1ccccc1)S(=O)(=O)c1ccc2c(c1)n(C)c(=O)n2C | 88 | / | 107 | 91
CN(C)CCCc1cc(C(=O)Nc2ccc(-c3ccncc3)cc2)ccc1O | / | -26 | 100 | /
CCCC(=O)Nc1ccc2nc(-c3ccccc3)[nH]c2c1 | 66 | 6 | 102 | 76
Cc1cc(=O)n(CCOc2ccccc2)c2c1c(C)nn2-c1ccccc1 | 102 | 4 | 101 | 112
O=C(NC1CCCCC1)n1ncc2ccccc21 | / | -14 | 100 | /
CCCNC(=O)Nc1ccc(-c2noc(Cc3ccccc3Br)n2)cc1 | / | 4 | 103 | /
CCN1C(=O)/C(=C2\SC(=S)N(N)C2=O)c2ccccc21 | 70 | -14 | 98 | 80
Cn1c(C2CCCO2)nc2ccccc21 (stereo unspecified) | 84 | -12 | 106 | 101
CCCCNC(=O)CCc1c(C)n(C)c2nc(-c3ccccc3)nn2c1=O | / | 14 | 105 | /
NC(=S)Sc1nncn1C(=O)c1ccc(=O)[nH]n1 | 94 | -21 | / | 94
CCn1cc(S(=O)(=O)c2ccc(OC)cc2)c(=O)c2cc(F)c(N3CCCCCC3)cc21 | 93 | / | 108 | 99
Cc1ccc(Cn2nnc3c(=O)[nH]c(C(=O)NC(C)(C)C)nc32)cc1 | 94 | -8 | 100 | 115
Nn1c(SCC(=O)NC(=O)NC2CCCC2)nnc1SCC(=O)NC(=O)NC1CCCC1 | 93 | -22 | / | 84
CCOC(=O)c1nn(-c2ccccc2)c(=O)c2c(NC(=O)C(C)C)scc12 | 86 | 1 | 100 | 111
CN(CC1COc2ccccc2O1)c1nnnn1-c1ccccc1 (stereo unspecified) | 96 | -28 | / | 113
O=C(NCCCN1CCCC1=O)C1CCC(CNS(=O)(=O)c2ccccc2)CC1 (stereo unspecified) | 90 | 7 | 103 | 102
c1ccc(CN2CCN(Cc3c[nH]c4ccccc34)CC2)cc1 | 88 | 3 | 109 | 96
COC(=O)c1c(NC(C)=O)c2c3c(sc2n1Cc1cc(C)ccc1C)CCCC3 | 107 | / | 105 | 90
COC(CNC1=CC(=O)OC12CCCCC2)OC | 117 | 0 | 99 | 100
Cc1ccccc1NS(=O)(=O)c1ccc2c(c1)n(C)c(=O)n2C | 82 | / | 99 | 108
CC(O)c1cccc(NC(=O)C2C3C=CC(C3)C2C(=O)O)c1 (stereo unspecified) | 103 | 2 | 98 | 89
Cc1cc(C)cc(N(C(C)C(N)=O)S(C)(=O)=O)c1 (stereo unspecified) | 104 | -5 | 101 | 96
O=C(NCc1csc(-c2cccs2)n1)C1CC1 | 100 | -42 | 110 | 103
COc1ccc(Cl)cc1S(=O)(=O)Nc1ccc2c(c1)n(C)c(=O)n2C | 82 | -4 | 109 | 111
CCc1sc(NC(=O)CN2CCCC2)nc1-c1ccccc1 | 92 | 4 | 105 | 141
COc1ccc(NC(=O)Cn2nc3c(Sc4ccccc4)nc4ccccc4n3c2=O)cc1 | / | -7 | 112 | /
COc1ccc2ncc3c(-c4ccc(C)c(C)c4)nn(CC(=O)NC4CCCCC4)c3c2c1 | 89 | / | 99 | 80
COc1ccc(CCN=C=S)cc1 | -0.3* | 14 | / | 9.0*
Cc1ccc(C(O)CCC(=O)O)cc1 (stereo unspecified) | 97 | -10 | 101 | 103
COc1ccc2nc(C)c(C(=O)OCCN(C)C)cc2c1 | 89 | -17 | 101 | 113
COc1ccc2c(c1)C(=O)CC(c1ccc3c(c1)OCCO3)O2 (stereo unspecified) | 97 | -18 | / | 95
CC(C)Nc1ccc(-c2nc(-c3ccncc3)no2)cc1[N+](=O)[O-] | 91 | -42 | 102 | 97
CC1(C)Cc2ccccc2C(N2CCOCC2)=N1 | 99 | 1 | / | 114
Cc1nnc(COc2ccc3ccccc3c2Br)o1 | 87 | -56 | / | 92
CCCN1CCC(NCCc2ccc(Cl)cc2)CC1 | 101 | -9 | 101 | 75
Cc1cccc(-c2noc(-c3ccc(NCc4cccnc4)c([N+](=O)[O-])c3)n2)c1 | 88 | -19 | 102 | 105
S=c1[nH]nc(Cc2cccc3ccccc23)n1/N=C/c1ccco1 | 82 | -52 | / | 103
COc1ccc(-c2cc(C(=O)NCc3cccc(OC)c3)c3ccccc3n2)cc1 | 86 | / | 100&109 | 102
COc1ccc(CNC(=O)c2ccc(Cn3c(=O)c4cccn4c4cccnc43)cc2)c(OC)c1 | 87 | / | 104 | 99
O=C(CCSc1ccccc1)NCc1ccco1 | 85 | -17 | / | 108
Cc1ccc2[nH]c3c(c2c1)CCCC3CN (stereo unspecified) | 44 | 0 | 98 | 93
CC(OC(=O)Cc1ccsc1)C(=O)Nc1ccc(Cl)cn1 (stereo unspecified) | 79 | -18 | / | 82
CCOc1ccc(OCCSc2nc(C)cc(=O)[nH]2)cc1 | 93 | / | 103 | 99
CS(=O)(=NS(=O)(=O)c1ccc(OC(F)(F)F)cc1)c1ccccc1 (stereo unspecified) | 86 | 1 | 99 | 101
CN1C(C(=O)c2ccccc2)=C(NC(=O)c2ccc(F)cc2)c2ccccc2S1(=O)=O | 90 | -17 | 103 | 101
Oc1c(C=Nc2ccc(Cl)cc2)[nH]c2ccccc12 | 68 | / | 127 | 113
COc1ccc(CNCC(=O)O)cc1 | 84 | / | 107 | 75
CCN1C(=O)c2ccccc2S(=O)c2ccc(C(=O)NCc3ccc(F)cc3)cc21 (stereo unspecified) | 75 | -15 | 103 | 109
CCCCn1c(CCC(=O)OCc2csc(-c3ccccc3)n2)nc2cc(S(=O)(=O)N3CCOCC3)ccc21 | 98 | -21 | / | 87
Cc1cc(C)n(-c2nc3cc(Cl)ccc3nc2NCc2ccc(F)cc2)n1 | 89 | / | 101 | 89
COC(=O)c1cc2c(cc1N)OCCO2 | 96 | 2 | 104 | 91
O=C(C1=C2SC=C(c3ccc(Br)cc3)N2CC1)c1cncc(Br)c1 | 94 | -1 | / | 91
Cn1c(=O)c2c(-c3ccc(Cl)cc3)n(-c3ccc(Br)cc3)cc2n(C)c1=O | / | -4 | 102 | /
CC(=O)NNc1ncnc2c1cnn2-c1ccc(F)cc1 | 77 | -29 | 101 | 94
CC1=C(C(=O)Nc2ccccc2C)C(c2cccnc2)n2nc(SCc3ccccc3)nc2N1 (stereo unspecified) | 67 | / | 107 | 146
Fc1cccc2sc(NCc3ccccc3)nc12 | 106 | / | 98 | 140
COc1ccc(CCNC(=O)CCCn2c(=O)c3ccccc3n(CC(=O)Nc3ccccc3C)c2=O)cc1OC | 86 | -13 | 105 | 93
O=C(Nc1cccc(N2CCCC2=O)c1)C1CCN(C(=O)/C=C/c2ccccc2)CC1 | 87 | -32 | / | 79
CC(=O)N1N=C(c2c(-c3ccccc3)c3cc(Cl)ccc3[nH]c2=O)CC1c1ccccc1Cl (stereo unspecified) | / | 14 | 99 | /
O=C(NCCCc1ccco1)c1ccc(Cn2c(SCc3ccccc3)nc3cccnc32)cc1 | 85 | 6 | 108 | 105

The listing continues.
compound | Sa growth 42C second temp | HCMV UL50-53 inh | GIV-Gai inh | Sa growth 42C
CCOC(=O)Cn1cnc2onc(-c3ccc(F)cc3)c2c1=O | 100 | 21 | 113 | 104
CC1(C)C(c2ccccc2)=NC(c2ccccc2)=[N+]1[O-] | 88 | -11 | 95 | 79
Nc1ccccc1-c1nc2ccccc2s1 | 73 | -20 | 99 | 90
CCOC(=O)c1c(NC(=O)/C=C/c2ccc(OCC)cc2)sc2c1CCCC2 | 94 | -25 | 110 | 114
COc1ccc(Nc2nc3ccccc3nc2NS(=O)(=O)c2ccc(Cl)cc2)cc1OC | 79 | -26 | 105 | 108
O=[N+]([O-])c1ccc2oc(SCc3nc4ccccn4c3Br)nc2c1 | / | 4 | 109 | /
Cc1ccc(S(=O)(=O)Nc2cncc(C(=O)N3CCc4ccccc43)c2)cc1 | 74 | -22 | 103 | 99
NC1=NC(=O)CC(C(=O)Nc2ccccc2)S1 (stereo unspecified) | 76 | -2 | 102 | 113
O=C(N=C1SCCN1CC(O)c1ccccc1)c1ccccc1 (stereo unspecified) | 79 | 2 | 97 | 93
CCOc1ccc(NC(=O)CCc2c(C)nc3cc(-c4ccc(Cl)cc4)nn3c2C)cc1 | 85 | -20 | 101 | 111
Cc1n[nH]c(C)c1CN | 76 | 0 | 100 | 107
O=C(Nc1ccc2c(c1)C(=O)NC2=O)c1ccco1 | 73 | -62 | 99 | 112
O=C(NCc1ccccc1)c1ccccc1 | 106 | -8 | / | 102
N#Cc1ccc(Sc2ccc(C#N)c(C#N)c2)cc1C#N | 23 | -22 | 96 | 55
CCn1c(=O)c2c(C(=O)NCCCN3CCN(C)CC3)cc(=O)n(CC)c2n(C)c1=O | / | -38 | 106 | /
COc1cc(-c2ccno2)ccc1S(=O)(=O)N1CCN(c2ccc(F)cc2)CC1 | 98 | / | 107 | 133
CCOc1ccc(C(=O)Nc2ccc(-c3nc4cc(C)ccc4o3)cc2)cc1 | 94 | / | 109 | 94
O=C(Cc1ccc2c(c1)OCCO2)Nc1ccccc1C(=O)Nc1ccc2c(c1)OCO2 | 96 | -4 | / | 98
O=C1CC(=O)Nc2cc(S(=O)(=O)N3CCOc4ccc(Cl)cc43)ccc2N1 | 82 | / | 106 | 94
COc1cc(NC(=O)c2ccc(C)cc2)ccc1NC(=O)c1cc2ccccc2o1 | 88 | -46 | 108 | 90
Cc1cnc(N)c2c(=O)oc3ccccc3c12 | 79 | -34 | 110 | 98
CCC(=O)Nc1cc(-c2nn(C)c(=O)c3ccccc23)ccc1OC | 86 | -8 | 98 | 88
COc1ccc(CNC(=O)CN(C(=O)c2ccc(N3CCCC3)nc2)c2ccccc2C)cc1 | 35 | -25 | 103 | 91
CC(OC(=O)C1=NNC(=O)CC1)C(=O)Nc1cccc(Cl)c1 (stereo unspecified) | 99 | -37 | / | 85

Entries of single compounds, looked up by structure:
Shown for O=C1CC(=O)Nc2cc(S(=O)(=O)N3CCOc4ccc(Cl)cc43)ccc2N1 → Sa growth 42C second temp = 82; HCMV UL50-53 inh = /; GIV-Gai inh = 106; Sa growth 42C = 94
Shown for COc1cc(-c2ccno2)ccc1S(=O)(=O)N1CCN(c2ccc(F)cc2)CC1 → Sa growth 42C second temp = 98; HCMV UL50-53 inh = /; GIV-Gai inh = 107; Sa growth 42C = 133

The results go on:
compound | Sa growth 42C second temp | HCMV UL50-53 inh | GIV-Gai inh | Sa growth 42C
O=C(NCc1ccc2c(c1)OCO2)c1cccn1-c1cccnc1 | / | -35 | 103 | /
CCCc1noc(-c2cc(S(=O)(=O)N(C)C)ccc2OC)n1 | / | 2 | 102 | /
COc1cccc(C=C2C(=O)c3ccccc3C2=O)c1OC(C)C | 89 | / | 99 | 74
COc1ccc(N2CCN(C(=O)CCCCn3c(=O)[nH]c4ccsc4c3=O)CC2)cc1 | 84 | 8 | 110 | 99
COc1ccc(OC)c(S(=O)(=O)N2CCN(c3ncccn3)CC2)c1 | 90 | -5 | 103 | 102
Cc1onc(-c2ccccc2)c1C1=N/C(=C\c2ccc(Br)cc2)C(=O)O1 | / | -3 | 102 | /
CCN1C(=O)/C(=C2/C=Cc3ccccc3N2CC)SC1=Nc1ccc(N2CCOCC2)cc1 | 89 | -7 | 93 | 101

Filtered by structure, the entries above with a Cl atom
compound | Sa growth 42C second temp | HCMV UL50-53 inh | GIV-Gai inh | Sa growth 42C
COc1ccc(Cl)cc1S(=O)(=O)Nc1ccc2c(c1)n(C)c(=O)n2C | 82 | -4 | 109 | 111
CCCN1CCC(NCCc2ccc(Cl)cc2)CC1 | 101 | -9 | 101 | 75
CC(OC(=O)Cc1ccsc1)C(=O)Nc1ccc(Cl)cn1 (stereo unspecified) | 79 | -18 | / | 82
Oc1c(C=Nc2ccc(Cl)cc2)[nH]c2ccccc12 | 68 | / | 127 | 113
Cc1cc(C)n(-c2nc3cc(Cl)ccc3nc2NCc2ccc(F)cc2)n1 | 89 | / | 101 | 89
Cn1c(=O)c2c(-c3ccc(Cl)cc3)n(-c3ccc(Br)cc3)cc2n(C)c1=O | / | -4 | 102 | /
CC(=O)N1N=C(c2c(-c3ccccc3)c3cc(Cl)ccc3[nH]c2=O)CC1c1ccccc1Cl (stereo unspecified) | / | 14 | 99 | /
COc1ccc(Nc2nc3ccccc3nc2NS(=O)(=O)c2ccc(Cl)cc2)cc1OC | 79 | -26 | 105 | 108
CCOc1ccc(NC(=O)CCc2c(C)nc3cc(-c4ccc(Cl)cc4)nn3c2C)cc1 | 85 | -20 | 101 | 111
O=C1CC(=O)Nc2cc(S(=O)(=O)N3CCOc4ccc(Cl)cc43)ccc2N1 | 82 | / | 106 | 94
CC(OC(=O)C1=NNC(=O)CC1)C(=O)Nc1cccc(Cl)c1 (stereo unspecified) | 99 | -37 | / | 85
